Source: PubChem
AmpC nodet inh: inhibitors of E. coli AmpC beta-lactamase without detergent; P00811; AmpC nitrocefin hydrolysis, absorbance 480 nm, no detergent; potencies from a single point are estimates; Potency, µM (series often up to 28.7 µM), for the others: top-dose activity change, negative = inhibition; hit rate 1.8% among 71,000; active = falling curve, for most hits resting on a single point; inconclusive = weak or doubtful change; inactive = flat or rising curve; also: % of control where 0% means no effect; about half of the hits show no inhibition at the top dose; a quarter of the inactives give rising signals
Target sequence (P00811 whole entry, looked up): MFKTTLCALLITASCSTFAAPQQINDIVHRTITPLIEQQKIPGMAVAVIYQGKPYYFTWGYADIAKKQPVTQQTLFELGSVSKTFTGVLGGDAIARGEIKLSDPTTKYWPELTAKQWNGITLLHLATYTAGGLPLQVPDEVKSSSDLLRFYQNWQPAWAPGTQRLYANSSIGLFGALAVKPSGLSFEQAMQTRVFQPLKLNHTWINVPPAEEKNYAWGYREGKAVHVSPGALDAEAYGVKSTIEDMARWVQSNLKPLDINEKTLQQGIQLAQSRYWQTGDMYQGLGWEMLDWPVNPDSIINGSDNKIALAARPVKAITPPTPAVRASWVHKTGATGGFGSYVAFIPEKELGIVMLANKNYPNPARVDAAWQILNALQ
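Enzyme, pH 7.0 phosphate. Compound titrations were pre-incubated with AmpC for 15 min at room temperature before nitrocefin (stock 800 uM) addition; product formation was recorded at 480 nm every 20 s for 4 min.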
Numbers without * were called inactive; & = joins results of further samples; [ ] = dose if it differs, or a comment. Potency is read from the fitted curve at half-maximal effect.

SMILES	AmpC nodet inh
COC(=O)n1c(=S)oc2cc(Cl)ccc21	-1%
N#CCCN(C(=O)Nc1ccccc1)c1ccccc1	-10%
CCOc1ccc(NC(=O)C2CC(C)=C(C)CC2C(=O)O)cc1 (stereo not drawn)	0%
O=C1CCSc2cccc3cccc(c23)N1	4%
Cc1oc2nc(SCC(=O)NC3CCCCC3)nc(N)c2c1C	16%
CN(CCc1ccccn1)c1ncnc2[nH]ncc12	-7%
O=C(Nc1cccc(F)c1)N1CCCC2(CCNCC2)C1	-2%
O=C(O)CN1C(=O)CCS(=O)c2ccccc21 (stereo not drawn)	6%
Cc1ccc(-c2nc(N)n(C(=O)Cc3ccccc3)n2)cc1	19%
CC(C)(C)OC(=O)NCC(=O)NCC(=O)OCc1ccccc1	5%
Fc1cccc(CSc2ncnc3c2ncn3[C@H]2CCCS2)c1	14%[5.75 µM]
CCOC(=O)C1=C(NC#N)OC(C)=C(C)C1c1ccc(O)cc1 (stereo not drawn)	16%
Cc1ccc(-c2nc(C)sc2CC(=O)NCc2ccco2)cc1	6%
COC(=O)c1c(N)sc(C(=O)N2CCOCC2)c1C	8%
CCC(C)NC(=O)c1cc(CC(C)C)on1 (stereo not drawn)	6%

The last 2 entries of the section above come first, to join the parts.
SMILES	AmpC nodet inh
COC(=O)c1c(N)sc(C(=O)N2CCOCC2)c1C	8%
CCC(C)NC(=O)c1cc(CC(C)C)on1 (stereo not drawn)	6%
CN(C)[C@@H]1C(=O)C(C(N)=O)=C(O)[C@@]2(O)C(=O)C3=C(O)c4c(O)cccc4[C@@](C)(O)[C@H]3[C@H](O)[C@@H]12	-22%
COc1ccc(NC(=O)N2CC[C@@]3(CCCN(C(=O)c4ccco4)C3)C2)cc1	9%
CCOC(=O)N1CCC2(CC1)C(C#N)=C(N)Oc1c2sc2nc(C)cc(C)c12	49%
COc1ccc2[nH]c(I)c(CCNC(C)=O)c2c1	14%&3%
O=C(NC(Cc1ccccc1)C(=O)O)c1ccc(S(=O)(=O)N2CCOCC2)cc1 (stereo not drawn)	0%
Cc1nc(NC(=O)c2ccc(Br)s2)sc1C(=O)N(C)C	5%
Cc1nc2cc(S(=O)(=O)C(F)(F)F)ccc2s1	-2%
COCCCNC(=O)Cn1nnc(-c2ccc(NC(=O)c3ccc(F)cc3)cc2)n1	9%
O=C(NCc1cccnc1)c1noc2c1CCCC2	-4%
CCCc1nc(SCC(N)=O)[nH]c(=O)c1CC	-9%
COc1ccc(-c2coc3cc(O[C@@H]4O[C@@H](CO)[C@@H](O)[C@@H](O)[C@H]4O)cc(O)c3c2=O)cc1	25%
COc1ccc(OC)c(NC(=O)CSc2nnc(N)s2)c1	1%
CN(C1=NC(=O)C(CC(=O)Nc2ccc(Br)cc2)S1)c1ccc(O)cc1 (stereo not drawn)	-5%
O=C(NC1CCCCCCC1)c1cnccn1	15%
Cc1oc(-c2ccc(Cl)cc2)nc1CS(=O)CC(=O)NCCCN(C)C1CCCCC1 (stereo not drawn)	38%
O=c1[nH]c(=O)n(C2CCCCC2)c(O)c1C1NCCc2ccccc21 (stereo not drawn)	-23%
CCCC[C@@H]1C[C@H]1C(NC(=O)c1ccccc1)c1ccc(-c2ccccc2)cc1 (stereo partly drawn)	-12%
COc1ccc(OC)c(C(=O)c2ccc(C(=O)N3CCCCC3)cc2)c1	68%
CCC(C)(C)NC(=O)CN(C(=O)CNS(=O)(=O)c1ccccc1)c1ccccc1	3%
CC1=C(C(=O)Nc2ccccc2)C(c2ccc(C)o2)N2C(=O)CSC2=N1 (stereo not drawn)	6%
COc1ccc2c(c1)c(CCN1C(=O)c3ccccc3C1=O)cn2C(=O)c1ccco1	-12%
Cc1nn(C)cc1CNC(=O)c1cc2n(n1)C(C(F)(F)F)CC(c1cccs1)N2 (stereo not drawn)	76%
O=c1c(-c2ccc(F)cc2)nc2cnc(Oc3cccc(Cl)c3)nc2n1C[C@H]1CCCO1	10%
COC(=O)CNc1nc(OC)nc(N(C)C)n1	1%
Cc1cnc(NC(=O)CN2C(=O)C3CC=CCC3C2=O)s1 (stereo not drawn)	-2%
O=C(N1CCOCC1)N1CCC(NC(=O)C23CC4CC(CC(C4)C2)C3)CC1	11%
O=C(Nc1ccc2c(c1)CCC2)c1cnccn1	3%
O=C(Nn1cnnc1)c1ccncc1	6%
COC(=O)c1cc(=O)n(Cc2ccco2)c(=Nc2ccc(F)c(Cl)c2)s1	-19%
Cc1ccccc1-n1c(-c2ccncc2)n[nH]c1=S	4%
CCC(C)(C)n1nnnc1C(c1ccccc1F)N1CCC(C(N)=O)CC1 (stereo not drawn)	29%
COC(=O)Nc1ccc(OC)c(OC)c1	-4%
COc1ccccc1Oc1c(C)oc2c(CN3CCN(CCO)CC3)c(O)ccc2c1=O	2%
CCN1C(=S)SC(=O)C1=C1C=C(C)N(CCOC)C(C)=C1	88%
O=C(c1ccccc1)N1CCN(CC(O)COCC2CC=CCC2)CC1 (stereo not drawn)	61%
Cc1cc(C(=O)NCc2ccccc2Br)no1	9%
COc1ccccc1NC(=O)CSc1nnnn1Cc1ccccc1	8%
O=C(NCCCc1ccccc1)c1ccc(Br)o1	-7%
Cc1cc(C)n(C/C=C/Cn2nc(C)cc2C)n1	11%
CCOC(=O)N1CCN(CC(=O)Nc2cc3c(cc2C(C)=O)OCO3)CC1	7%
O=C(O)Cn1nc(-c2ccccc2)c2ccccc2c1=O	-3%
O=C(CSc1nnc(-c2ccco2)n1-c1ccccc1)N1CCOCC1	6%
N#CCCN(C(=O)COC(=O)c1ccc2c(c1)NC(=O)CS2)c1ccc2c(c1)OCCO2	80%
CCCCNC(=O)CS(=O)Cc1nc(-c2cccc(C)c2)oc1C (stereo not drawn)	4µM*[single pt active]
CCC1Oc2ccccc2N(CC(=O)Nc2ccc(OC)cc2OC)C1=O (stereo not drawn)	18%

Filtered by structure, those above with an NH in an aromatic ring.
SMILES	AmpC nodet inh
CN(CCc1ccccn1)c1ncnc2[nH]ncc12	-7%
COc1ccc2[nH]c(I)c(CCNC(C)=O)c2c1	14%&3%
CCCc1nc(SCC(N)=O)[nH]c(=O)c1CC	-9%
O=c1[nH]c(=O)n(C2CCCCC2)c(O)c1C1NCCc2ccccc21 (stereo not drawn)	-23%
Cc1ccccc1-n1c(-c2ccncc2)n[nH]c1=S	4%

(more compounds)
SMILES	AmpC nodet inh
Cc1noc(C)c1-c1cncnc1NCc1cccnc1	18%
COc1ccc(Cl)cc1C(=O)NCC(C)C	-10%
CC(C)CNC(=O)c1cccc(C(=O)NCC(C)C)c1	-17%
O=C(c1cccc(F)c1)N1CCC2(CC1)CCN(c1ncccn1)CC2	98%
Nc1cc(=O)[nH]c(SCC(=O)NCC2CCCO2)n1 (stereo not drawn)	1%
COc1ccc(C2SCC(=O)N2c2c(C)n(C)n(-c3ccccc3)c2=O)c(OC)c1 (stereo not drawn)	8%
Cc1ccc2[nH]c(-c3ccccc3)c(CN3CCN(C)CC3)c(=O)c2c1	5%
c1ccc(N2CCN(c3cnccn3)CC2)nc1	-6%
C=CCn1c(SCCC#N)nnc1-c1ccncc1	0%
CCOC(=O)C(Cc1cc(C(C)=O)ccc1OC(C)C)C(=O)OCC	61%
COc1ccc(OC)c(C2C(C(=O)Nc3ccccc3OC)=C(C)Nc3nc(CCCO)nn32)c1 (stereo not drawn)	74%
CC(C)(C)NC[C@H](O)COc1nsnc1N1CCOCC1	6%
CC1Cc2ccccc2N1C(=O)CCS(=O)(=O)c1cccs1 (stereo not drawn)	18%
COC(=O)C1C(=O)N2CCCSC2=C(C#N)C1c1cccs1 (stereo not drawn)	0%
O=C(O)C1CCCN(S(=O)(=O)c2ccc(Cl)s2)C1 (stereo not drawn)	-4%
COc1ccc(C2C3=C(N=C4SCC(=O)N42)c2ccccc2CC3)cc1OC (stereo not drawn)	105%
O=c1[nH]n(CC2COC3(CCCCC3)O2)c(=O)c2ccccc12 (stereo not drawn)	16%
Cc1ccc(Cn2ccc(NC(=O)c3c(-c4ccccc4Cl)noc3C)n2)cc1	14%
Cc1cc(NC(=O)CSc2nc3ccccc3[nH]2)no1	-16%
Cc1ccccc1CSCC(=O)NC(=O)NC(C)(C)C	-1%
COC(=O)[C@@]1(C)C=C[C@@H](Cc2ccccc2)N1C(=O)c1ccccc1	58%
CCCS(=O)(=O)NCc1cn2c(C)csc2n1	-11%
CCc1nnc(NC(=O)CSc2nnc(COc3ccccc3)n2Cc2ccccc2)s1	-3%
Cn1nnc(NC(=O)c2ccco2)n1	1%
O=C(CSc1nc2c(c(=O)n1-c1ccc(Cl)cc1)SCC2)Nc1ccc2c(c1)OCCO2	-3%
COC(=O)[C@@]1(Cc2ccccc2)[C@@H]2[C@@H](CC(=O)[C@H]2CC(=O)C(=O)N(C)C)CN1C(=O)c1ccccc1	141%
Oc1ccc2nc(Cc3ccccc3)[nH]c2c1	-23%
CCOC(=O)C1C(=O)NCC2CCCC21 (stereo not drawn)	-15%
O=C(NCC1COc2ccccc2O1)C1CCCN(S(=O)(=O)c2cnc[nH]2)C1 (stereo not drawn)	-9%
COC(=O)c1ccc(NC(=O)CSc2nnc(CNc3ccc(OC)cc3)n2C)cc1	10%
CC1(C)CC(=O)C(C(c2ccco2)C2C(=O)CC(C)(C)CC2=O)C(=O)C1	-1%
O=C(CN(c1ccccc1)S(=O)(=O)c1ccccc1)N1CCN(Cc2ccc3c(c2)OCO3)CC1	122%
O=C(O)c1cccc(S(=O)(=O)NCc2cccs2)c1	-13%
CCOc1ccc(OCc2ccc(C(=O)Nc3ccc(Cl)cn3)o2)cc1	-1%
COc1cccc(-c2nnc(Nc3nc4c(F)cccc4s3)o2)c1	-4%
CCOc1cc(C2C(C(=O)c3ccco3)=C(O)C(=O)N2CCc2ccccc2)ccc1O (stereo not drawn)	-16%
O=C(CCN1C(=O)c2ccccc2C1=O)NCCC1=CCCCC1	1%
CCOC(=O)c1cnc(SCc2nc(N)nc(Nc3ccc(F)cc3)n2)nc1N	28%
c1ccc2oc(SCc3cn4ccccc4n3)nc2c1	18%
O=C(Cl)OCc1ccccc1	-9%
O=C(NCC1CCS(=O)(=O)C1)NCC1CCS(=O)(=O)C1 (stereo not drawn)	-1%
Cc1cc(C)c2c(N)c(C(=O)Nc3nccs3)sc2n1	30%
COc1ccccc1-c1nnc2sc(COc3ccc(Cl)cc3Cl)nn12	49%
CCOC(=O)N1CCN(Cc2nc3c(c(=O)n(C)c(=O)n3C)n2CCCc2ccccc2)CC1	141%
COCCN(C(=O)Nc1ccc(OC)cc1OC)C1CCN(C(C)C)CC1	-10%

In the list so far, 11 have fluorine.
SMILES	AmpC nodet inh
O=C(Nc1cccc(F)c1)N1CCCC2(CCNCC2)C1	-2%
Fc1cccc(CSc2ncnc3c2ncn3[C@H]2CCCS2)c1	14%[5.75 µM]
Cc1nc2cc(S(=O)(=O)C(F)(F)F)ccc2s1	-2%
COCCCNC(=O)Cn1nnc(-c2ccc(NC(=O)c3ccc(F)cc3)cc2)n1	9%
Cc1nn(C)cc1CNC(=O)c1cc2n(n1)C(C(F)(F)F)CC(c1cccs1)N2 (stereo not drawn)	76%
O=c1c(-c2ccc(F)cc2)nc2cnc(Oc3cccc(Cl)c3)nc2n1C[C@H]1CCCO1	10%
COC(=O)c1cc(=O)n(Cc2ccco2)c(=Nc2ccc(F)c(Cl)c2)s1	-19%
CCC(C)(C)n1nnnc1C(c1ccccc1F)N1CCC(C(N)=O)CC1 (stereo not drawn)	29%
O=C(c1cccc(F)c1)N1CCC2(CC1)CCN(c1ncccn1)CC2	98%
COc1cccc(-c2nnc(Nc3nc4c(F)cccc4s3)o2)c1	-4%
CCOC(=O)c1cnc(SCc2nc(N)nc(Nc3ccc(F)cc3)n2)nc1N	28%

Continuation.
SMILES	AmpC nodet inh
Cc1cc(NC(=O)c2cc(-c3ccco3)on2)n(-c2ccccc2)n1	3%
CC1(C)CC(=O)C2=C(C1)Nc1ncnn1C2c1ccccn1 (stereo not drawn)	-2%
O=C(CNS(=O)(=O)c1ccc(Br)s1)N1CCC2(CC1)OCCO2	10%
COc1cc(C(=O)Nc2ccc(NC(=O)C3CC3)nc2)cc(OC)c1OC	4%
C=C(CC(=O)O)C(=O)O (tested in a mixture with another compound)	11%[5.75 µM]
CCCCNC(=O)c1ccccc1NC(=O)c1ccccc1N(C)S(C)(=O)=O	4%
CCn1c(SCCOc2ccc(Cl)cc2)nnc1-c1cccs1	64%
Cc1ccc(C(C(=O)NCc2ccco2)N(CCc2ccccc2)C(=O)Cn2nnc3ccccc32)o1 (stereo not drawn)	11%
CCC(C)NC(=O)COc1ccc(S(=O)(=O)N2CCOCC2)cc1 (stereo not drawn)	-8%
Cc1cccc(N2CCN(C(c3cccs3)c3nnnn3C(C)(C)C)CC2)c1C (stereo not drawn)	21%
O=C(CCc1ccc(O)cc1)c1c(O)cc(O)cc1O	-24%&-17%
CC(C)C(=O)Nc1ccc([N+](=O)[O-])c(C(F)(F)F)c1	-14%
COc1ccc(-c2cc(C(=O)NCc3cccnc3)no2)cc1OC	-1%
Cn1nnc(NC(=O)c2ccc(C(C)(C)C)cc2)n1	17%
CCCCOc1ccc(CSc2n[nH]c(C)n2)cc1	9%
CCCC(=O)C1=C(O)C(C(=O)OC)C(C)(C)CC1=Nc1ccncc1 (stereo not drawn)	42%
CCCN1Cc2cccc(C(N)=O)c2C1=O	-13%
O=C(NCc1ccccn1)c1cn(CCc2ccccc2)nn1	7%
N[C@@H]1CONC1=O	-13%[12.8 µM]
CC(=O)c1cccc(NC(=O)c2cc3ccccn3n2)c1	-3%
Cc1nc(N)[nH]c(=O)c1CCC(=O)OCC(C)C	5%
COCCn1c(=NC(=O)CSCC(=O)Nc2cc(C)on2)sc2cc(C(=O)OC)ccc21	34%
COCCNc1c(-c2ccc(O)cc2)nc2ccc(Cl)cn12	23%
CCC(=O)N1c2ccccc2[C@@H](N(C(C)=O)c2ccccc2)C[C@H]1C	30%
CCOC(=O)N1CCC(N2Cc3cccc(C(=O)Nc4ccc(OC)c(OC)c4)c3C2=O)CC1	53%
C=CCn1c(=O)c(C(=O)NCCNCC)c(O)c2ccccc21	4%

An excerpt; the hit share may differ from the screen's.
